HSV replic up: HSV replication enhancement | HSV replication augmentation in cells, fold increase | maximum fold increase | 220,000 tested, 0.005% active;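 active means peak rise of 1.5-fold or more in the series; inconclusive means self-fluorescent or not available for retest; tested in PC3 cells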;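 further: first round at 10 µM; read as green reporter fluorescence; hits show the peak of a series up to 25 µM; 1 = signal of infected wells without compound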
GALR2 ag: agonists of human galanin receptor 2 (GALR2). GALR2-expressing cells, agonist activation read-out. activation, %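 (tested at 5 µM)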. 140,000 tested, 0.48% active;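 active means above mean plus 3 SD of all compounds, about 5% in these data, not always enough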;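 further: 0% = vehicle buffer wells and 100% = reference agonist at full effect; tested in CHO reporter cells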
Target sequence (O43603 whole entry, looked up): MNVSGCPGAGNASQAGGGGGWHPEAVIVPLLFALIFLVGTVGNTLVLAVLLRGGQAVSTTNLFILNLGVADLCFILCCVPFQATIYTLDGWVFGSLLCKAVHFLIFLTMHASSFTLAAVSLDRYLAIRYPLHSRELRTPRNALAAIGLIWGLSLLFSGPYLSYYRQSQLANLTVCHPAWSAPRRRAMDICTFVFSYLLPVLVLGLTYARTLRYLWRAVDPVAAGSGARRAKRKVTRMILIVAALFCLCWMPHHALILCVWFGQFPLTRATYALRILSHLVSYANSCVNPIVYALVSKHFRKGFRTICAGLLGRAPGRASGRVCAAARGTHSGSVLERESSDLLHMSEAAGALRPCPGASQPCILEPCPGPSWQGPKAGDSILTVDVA
PKD1 inh: PKD1 (human) kinase inhibition; Q15139; inhibition, %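 (about 10 µM by stock and volumes)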; AID 797; 200,000 tested, 0.056% active; PKD1 kinase fluorescence polarization assay;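 active means inhibition of 50% or more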;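 further: controls were vehicle for no effect and a reference inhibitor for full effect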
RGS16-Gao: RGS16-Galphao interaction regulator (human). O15492+P09471. bead-based flow cytometry RGS16-Galphao binding, fluorescence; actives lie on both sides. binding response (% of control), % at 10 µM. 220,000 tested, 0.38% active. AID 1441;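 active means below 25% or above 175%, edge rows of some plates excepted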;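 further: Galphao activated by GDP with aluminum fluoride before binding; 100% = wells without compound and 0% = beads without RGS; some results beyond the cut were filed as inactive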
Target sequence (O15492 whole entry, looked up): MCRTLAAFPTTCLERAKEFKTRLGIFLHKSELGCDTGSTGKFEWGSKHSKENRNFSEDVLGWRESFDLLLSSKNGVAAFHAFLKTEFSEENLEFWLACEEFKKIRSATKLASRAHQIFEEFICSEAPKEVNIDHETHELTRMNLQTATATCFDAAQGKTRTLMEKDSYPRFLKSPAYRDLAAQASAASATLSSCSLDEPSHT
Target sequence (P09471 whole entry, looked up): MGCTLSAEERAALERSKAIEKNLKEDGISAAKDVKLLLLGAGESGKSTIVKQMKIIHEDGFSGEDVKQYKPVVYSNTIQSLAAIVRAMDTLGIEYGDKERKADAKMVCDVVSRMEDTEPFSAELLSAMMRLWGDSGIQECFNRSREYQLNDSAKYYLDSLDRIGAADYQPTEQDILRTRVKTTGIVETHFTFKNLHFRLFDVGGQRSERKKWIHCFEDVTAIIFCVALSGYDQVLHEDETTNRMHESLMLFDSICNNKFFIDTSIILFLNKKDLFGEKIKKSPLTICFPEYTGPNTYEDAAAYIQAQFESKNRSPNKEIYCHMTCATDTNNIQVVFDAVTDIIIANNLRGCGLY
Insulin prom inh: TRM-6 insulin promoter activity inhibition | TRM-6 cells (human fetal islet line), insulin promoter-eGFP reporter, imaging; reporter expression induced with tamoxifen | inhibition, % at 2 µM | 130,000 tested, 0.9% active | AID 1273;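 active means inhibition above the mean plus 3 SD, with well images judged a real hit on visual review, cut at about 60% in these data, passing the limit was not always enough; inconclusive means inhibition over the cutoff but images rejected on review; inactive means inhibition not above the cutoff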
Insulin prom inh cell count: also measured in Insulin prom inh; calls as there; normalized cell count, %; measured here: cell count, toxicity; reference of the scale not given here;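 cells exposed to compound for 48 h; stained nuclei by imaging scaled within each plate; lower means fewer cells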
HSV replic up primary fold: recorded beside HSV replic up, whose call it bears; fold increase; compound at 10 µM; measured here: primary screen fold increase 10 uM; tested in PC3 cells;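 GFP signal in the first replicate; 1 = infected wells without compound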
Starred values were filed as active, the others as inactive; i = inactive; ? = inconclusive; / = no result given.

SMILES | HSV replic up | HSV replic up primary fold | GALR2 ag | PKD1 inh | RGS16-Gao | Insulin prom inh | Insulin prom inh cell count
CCOC(=O)Cn1cc(Cl)c(=O)c(Cl)c1 | i | 0.95 | / | / | 99.9 | / | /
CC1CCN(C(=O)C(NS(=O)(=O)c2cccc3nsnc23)c2ccccc2)CC1 (configuration not stated) | i | 1.01 | -0.8 | 10.0 | 99.5 | -12.5 | 86.4
COc1ccc(C(CC(=O)N2CCN(c3ccccc3)CC2)c2c(OC)cc(OC)c3ccc(=O)oc23)cc1 (configuration not stated) | i | 0.92 | / | / | 98.0 | / | /
CCn1c(SCc2nc(-c3ccccc3)no2)nnc1-c1cccs1 | i | 0.84 | -2.2 | 2.2 | 114.2 | -24.1 | 88.0
O=S1(=O)C=C(SCc2cccc(Cl)c2)Nc2ccccc21 | / | / | -0.7 | 7.9 | 101.7 | -40.9 | 98.3
COCCn1c(=O)c2c(nc3n2CCN3c2ccc(C)cc2)n(C)c1=O | i | 0.81 | -0.6 | -10.6 | 101.3 | / | /
O=C(NC1CCCCC1)c1cccc(COCC(F)(F)F)c1 | i | 0.99 | -0.1 | 8.3 | 35.4 | 14.3 | 83.6
CCOc1ncccc1C(=O)OCC(=O)c1ccc(F)cc1 | i | 0.93 | / | -4.2 | 102.0 | / | /
CCC(c1nnc(SCC(=O)Nc2ccc(C(=O)Nc3ccccc3OC)cc2)o1)N(C)C (configuration not stated) | i | 0.9 | -1.7 | -14.2 | 99.5 | 44.4 | 59.5
CC(C)OCCCNC(=O)c1cc2c(=O)n(C)c3ccccc3c2n1C | i | 1.32 | -1.1 | 2.1 | 77.7 | / | /
CN1CCN(S(=O)(=O)c2ccc(NC(=O)Cc3cccs3)cc2)CC1 | i | 1.01 | -1.6 | -0.6 | 99.1 | -230.0 | 98.9
O=C(COC(=O)c1n[nH]c2ccccc12)NC(=O)NC1CCCC1 | i | 1.04 | -1.8 | 1.3 | 93.5 | -6.2 | 67.0
COc1ccccc1NS(=O)(=O)c1ccc(O)c(C(=O)OCC(=O)N2c3ccccc3CC2C)c1 (configuration not stated) | i | 1.04 | / | -0.1 | 99.1 | / | /
Cc1cc(N2CCN(Cc3nc(-c4ccc(Cl)cc4)oc3C)CC2)cc(C)n1 | i | 0.83 | / | / | 102.7 | / | /
CSc1ccccc1C(=O)Nc1ccc2c(c1)OCO2 | i | 0.96 | / | 3.0 | 99.9 | / | /
CC(=O)N1[C@H](C)C=C[C@]1(Cc1ccccc1)C(=O)NCc1cc(F)cc(C(F)(F)F)c1 | i | 0.92 | -1.2 | -9.3 | 99.1 | -47.6 | 133.7
CCC(=O)c1ccccc1OCCN1CCN(Cc2ccccc2)CC1 | i | 1.04 | / | -1.0 | 99.0 | / | /
CCOC(=O)NC(=O)CSc1nnnn1-c1ccc(C)cc1 | i | 0.89 | -1.4 | 9.8 | 92.7 | -25.0 | 131.2
Cc1cccc(NC(=S)N2CCC(c3nc4ccccc4o3)CC2)c1 | i | 0.95 | / | -2.0 | 99.8 | / | /
COc1ccc(-c2cc(C(=O)N3CCOCC3)no2)cc1OC | i | 0.92 | -0.6 | -6.8 | 106.8 | / | /
O=C(O)c1ccc(/C=C(\c2nc3ccccc3[nH]2)c2nc3ccccc3s2)cc1 | i | 0.91 | / | / | 105.2 | / | /
Nc1nc(CSC(=S)N2CCN(c3ccccc3)CC2)nc(Nc2ccccc2)n1 | i | 0.97 | 0.4 | 3.6 | 101.6 | / | /
Cc1ccc(S(=O)(=O)N2CCOCC2)cc1NC(=O)CN(C)C1CCS(=O)(=O)C1 (configuration not stated) | i | 0.6 | / | / | 99.5 | / | /
CCC(C)(C)C(=O)Nc1ccc(OC)cc1[N+](=O)[O-] | i | 1.42 | -1.2 | -9.4 | 97.2 | 100.0* | 0.0*
COc1cc(/C=C(\C#N)c2nc(-c3cc4ccccc4oc3=O)cs2)ccc1O | / | / | -0.7 | -2.5 | 99.9 | / | /

Another view of part of the listing above.
| compound | HSV replic up | HSV replic up primary fold | GALR2 ag | PKD1 inh | RGS16-Gao | Insulin prom inh | Insulin prom inh cell count |
| --- | --- | --- | --- | --- | --- | --- | --- |
| CC(C)OCCCNC(=O)c1cc2c(=O)n(C)c3ccccc3c2n1C | i | 1.32 | -1.1 | 2.1 | 77.7 | / | / |
| COc1ccccc1NS(=O)(=O)c1ccc(O)c(C(=O)OCC(=O)N2c3ccccc3CC2C)c1 (configuration not stated) | i | 1.04 | / | -0.1 | 99.1 | / | / |
| CCC(c1nnc(SCC(=O)Nc2ccc(C(=O)Nc3ccccc3OC)cc2)o1)N(C)C (configuration not stated) | i | 0.9 | -1.7 | -14.2 | 99.5 | 44.4 | 59.5 |

The list continues:
SMILES | HSV replic up | HSV replic up primary fold | GALR2 ag | PKD1 inh | RGS16-Gao | Insulin prom inh | Insulin prom inh cell count
CC1CCN(c2ccccc2NC(=S)NC(=O)c2ccc(-c3cccc([N+](=O)[O-])c3)o2)CC1 | i | 0.94 | 20.9* | 0.8 | 100.9 | 16.2 | 79.5
CCn1c(COc2cccc3cccnc23)nnc1SCC(=O)O | i | 1.22 | 0.1 | -6.0 | 105.6 | / | /
CC(=O)Nc1cccc(S(N)(=O)=O)c1C | i | 1.17 | / | / | 86.2 | / | /
Cc1ccc(NC(=O)c2cccc(N3C(=O)CCC3=O)c2)nc1 | i | 1.02 | -2.2 | -2.7 | 93.5 | 38.1 | 114.3
COC(=O)CN(c1ccc(OC)cc1)S(=O)(=O)c1c(C)noc1C | i | 0.84 | -0.2 | 1.6 | 100.0 | / | /
O=C1CSC2(CCCCC2)N1CCO | i | 0.68 | -1.2 | 1.2 | 94.4 | / | /
COc1cccc(NC(=O)CSc2nnc(-c3ccoc3C)n2-c2ccccc2)c1 | ? | / | -0.3 | -0.2 | 94.5 | 50.0 | 147.0
CCOP(=O)(OCC)C(NC(=O)Nc1cccc(Cl)c1)C(N)=O (configuration not stated) | i | 1.12 | -0.6 | 8.1 | 100.2 | -32.1 | 123.4
C=C(C)COc1ccc2c(CC)cc(=O)oc2c1 | i | 0.92 | / | -6.5 | 101.3 | 33.3 | 103.6
COC(=O)c1ccc(NC2=CC(=O)CC(C)(C)C2)cc1 | i | 0.91 | -1.7 | -8.4 | 108.1 | / | /
Cc1cccc(OCCn2c(=S)[nH]c3ccccc32)c1 | i | 0.89 | -0.6 | -3.1 | 67.7 | 57.9 | 121.2
CC(C)CCNC(=O)c1ccc2c(c1)ncn2C1CCCC1 | i | 1.02 | / | -1.2 | 84.8 | / | /
Cc1cccc(OCC(=O)N/N=C/CC(C)c2ccccc2)c1C (configuration not stated) | i | 0.94 | -1.0 | 3.0 | 110.2 | 0.0 | 121.1
O=C1CN(CC(=O)Nc2ccc(SC(F)F)cc2)CCN1 | i | 0.9 | -1.0 | -5.8 | 96.1 | 35.7 | 111.5
COC(=O)c1cccc(Oc2nc3c(c(=O)n(C)c(=O)n3C)n2C(C)C)c1 | i | 0.94 | -0.6 | 9.1 | 114.3 | / | /
O=C(NC(=S)Nc1ccc(CN2CCOCC2)cc1)c1ccc2c(c1)OCCO2 | i | 1.08 | / | / | 93.5 | / | /
COCCNC(=O)C(c1ccc(C)o1)N(Cc1ccc(OC)cc1)C(=O)Cn1nnc2ccccc21 (configuration not stated) | i | 0.91 | 0.7 | -8.2 | 101.7 | 5.3 | 89.6
CC(=O)NC1=NN(C(C)=O)C2(S1)C(=O)N(C(C)C)c1ccc(C)cc12 (configuration not stated) | i | 0.88 | -0.5 | -2.7 | 104.5 | / | /
COc1ccc(C(=O)Nc2ncc(C)s2)cc1S(=O)(=O)N1CCCC1 | i | 1.1 | / | 0.5 | 90.7 | 23.5 | 141.8
COc1ccc(NC(C)=O)cc1NC(=O)c1cccc(C(F)(F)F)c1 | i | 0.94 | / | 4.3 | 103.1 | / | /
COc1ccc(CC(=O)Nc2ccc(-c3noc(-c4cccc(OC)c4)n3)cc2)cc1 | i | 0.81 | -1.3 | -1.1 | 94.7 | / | /
CC(C)C(=O)Nc1cc(S(=O)(=O)Nc2cccc(Cl)c2)ccc1Cl | i | 1.03 | -0.6 | -4.6 | 107.0 | / | /
CN(C)S(=O)(=O)c1cccc(NC(=S)NC(=O)C2CCCCC2)c1 | i | 0.79 | -0.9 | -0.9 | 82.3 | 7.7 | 68.1
c1coc(-c2nn3c(Cn4nnc5ccccc54)nnc3s2)c1 | i | 0.81 | -1.4 | -3.1 | 93.6 | / | /
CCC(C)C(=O)Nc1c2c(nc3c1CCC3)CCCC2 (configuration not stated) | i | 1.03 | -3.1 | 0.4 | 102.7 | -3.2 | 114.5

Next part:
SMILES | HSV replic up | HSV replic up primary fold | GALR2 ag | PKD1 inh | RGS16-Gao | Insulin prom inh | Insulin prom inh cell count
Cc1ccc(C2N(C)c3ccccc3-c3nc4ccccc4n32)o1 (configuration not stated) | i | 0.92 | -0.7 | -0.4 | 87.5 | 42.9 | 97.2
O=C(COC(=O)c1ccc[nH]c1=O)c1ccc(Cl)s1 | i | 0.99 | 0.1 | -2.5 | 98.1 | -75.0 | 118.0
COC(=O)c1ccccc1NC(=S)NC(=O)c1cccc2ccccc12 | i | 0.85 | -1.7 | 0.3 | 101.2 | -20.0 | 106.3
COc1ccc2nc(SCc3nc(N)nc(Nc4ccccc4)n3)[nH]c2c1 | i | 0.953 | 0.4 | -10.6 | 99.8 | / | /
CS(=O)(=O)N1CCN(c2ccccc2NC(=O)c2ccc(-c3ccc(Br)cc3)o2)CC1 | i | 1.29 | -1.1 | -11.1 | 100.5 | 23.9 | 89.4
CCOC(=O)N1CCN(C(=O)Cc2ccc(-n3c(=O)[nH]c4ccccc4c3=O)cc2)CC1 | i | 0.94 | -0.6 | -6.5 | 99.2 | / | /
C=CCSc1nnc(NC(=O)Cc2ccc(OC)c(OC)c2)s1 | i | 0.94 | / | -7.8 | 107.6 | 22.2 | 75.8
CCN(Cc1ccccc1)c1ccc(/C=N/NC(=S)NC(C)C)cc1 | i | 1.05 | 0.1 | 1.0 | 97.2 | 40.0 | 70.2
CC(=O)Oc1cc(OC(C)=O)c2c(C)cc(=O)oc2c1 | i | 0.97 | -1.3 | 53.7* | 104.6 | 19.4 | 82.3
N=c1c2c(n(Cc3cccc(Cl)c3)c3c1CCC3)CCCC2 | i | 0.94 | -1.8 | 0.8 | 105.0 | -8.6 | 91.1
CC(C)Oc1ccc(CSc2nnc3n(C)c(=O)c4c5c(sc4n23)CCCC5)cc1 | i | 1.04 | 1.4 | -4.1 | / | -55.6 | 181.6
COc1cc(OC)cc(C(=O)N[C@H](C(=O)N2CCc3ccccc32)C(C)C)c1 | i | 0.95 | -0.3 | -3.2 | 103.6 | / | /
COc1ccccc1CN1C[C@@H]2C[C@@H](C3=Cc4cccc(OC)c4OC3)N3CCC[C@@]23C1=O | i | 0.91 | / | -4.6 | 103.8 | / | /
Nc1nn2c(-c3ccccc3)cc(=O)[nH]c2c1N=Nc1ccc(Br)cc1 | i | 0.94 | / | -5.6 | 100.4 | / | /
CCOC(=O)c1[nH]c(C)c(/C(O)=C2\C(=O)C(=O)N(CCCN(C)C)C2c2cccnc2)c1C (configuration not stated) | i | 0.89 | -1.6 | 1.1 | 126.4 | 18.2 | 129.4
CCCc1cc(NCCCN2CCOCC2)n2c(nc3ccccc32)c1C#N | i | 0.86 | 0.6 | -0.7 | 79.7 | 6.2 | 162.9
Cc1ccccc1C(=O)NCCN=C1NS(=O)(=O)c2ccccc21 | i | 0.86 | -1.4 | -0.3 | 106.7 | / | /
CCN(CC)C(=O)CC(c1ccc(OC)cc1)c1c(O)cc(OC)cc1OC (configuration not stated) | i | 1.08 | / | / | 100.9 | / | /
CN1C(=O)N(C)C2(c3ccccc3)Nn3c(s/c(=C/c4ccccc4)c3=O)=NC12c1ccccc1 (configuration not stated) | i | 0.92 | -0.5 | -0.3 | 108.5 | -14.3 | 90.7
CCCN1CCN(C(=O)Cn2ncc3ccccc32)CC1 | i | 0.94 | -1.5 | -8.0 | 169.3 | -20.0 | 72.0
O=C(O)c1cc(-c2cccc([N+](=O)[O-])c2)nc2ccccc12 | i | 1.16 | / | / | 106.1 | / | /
CC(=O)c1cccc(NC(=O)COC(=O)c2ccc3c(c2)OCCO3)c1 | i | 0.97 | / | -9.9 | 97.3 | 22.2 | 114.1
CSc1nc(Cl)c(C#N)c(-c2ccc(C)cc2)n1 | i | 0.94 | -1.1 | -3.9 | 99.7 | 36.4 | 94.3
CCS(=O)(=O)c1ccc(-c2csc(-c3ccccc3Cl)n2)c(Cl)c1Cl | i | 0.93 | -0.7 | -4.0 | 87.9 | 40.9 | 130.0
CC(C)NC(=O)COC(=O)c1cccc(NS(=O)(=O)/C=C/c2ccccc2)c1 | / | / | -1.6 | 0.2 | 100.4 | -61.5 | 105.7
O=C(c1ccccn1)c1cc2ccccc2n1S(=O)(=O)c1ccccc1 | i | 1 | -0.5 | 4.0 | 35.4 | -3.5 | 113.7

Screening data from PubChem.
